# High-throughput results as filed in PubChem BioAssay.
# Vaccinia mCherry: qHTS for Stage-Specific Inhibitors of Vaccinia Orthopoxvirus: mCherry Reporter Primary qHTS | Potency, µM (doses to about 36.5 µM), without a hit: at the top dose activity change, negative = inhibition, hits mostly inhibitors | Vaccinia virus mCherry reporter infection, fluorescence; about a quarter of the inactives have no number | AID 720579, 2013 | hit rate 0.63% among 310,000; active = well fitted inhibition curve with a large enough effect; inconclusive = small, poorly fitted or top-dose-only effect; inactive = no such curve, though single readings can be large or run the other way; tested in A549 cells; note: nearly all actives have a fitted effect of over 35% in size; inactives centre near -10
# VACV Venus inh: qHTS for Stage-Specific Inhibitors of Vaccinia Orthopoxvirus: Venus Reporter Primary qHTS | Vaccinia virus Venus reporter expression, fluorescence | Potency, µM (series often up to 36.5 µM), inactives show at the top dose activity change, negative = inhibition, actives largely listed as inhibitors | hit rate 0.46% among 330,000; active means well fitted inhibition curve with a large enough effect; inconclusive means small, poorly fitted or top-dose-only effect; inactive means no such curve, though single readings can be large or run the other way; tested in A549 cells; note: nearly all actives have a fitted effect of over 30% in size; inactives centre near -10
# The depositor's hits bear a star; i = inactive; u = inconclusive; x = no result given; & = joins results of further samples; [ ] = another dose, or the depositor's remark. % is set by controls: 0 for no effect and ±100 for the full control effect; potency is the fitted concentration of half-maximal effect. Outcome played no part in choosing rows; any-hit rate near 0.82%.
canonical_smiles | Vaccinia mCherry | VACV Venus inh
C/C(=N\NC(=O)C1(C)CC1(Br)Br)c1cccc(NC(=O)c2ccc(C)o2)c1 (stereo unspecified) | -22% | -26%
COC(=O)c1cc(NC(=O)Cn2ncc3c([nH]c4ccccc43)c2=O)cc(C(=O)OC)c1 | 2% | -6%
CNS(=O)(=O)c1ccc2c(c1)NC(=O)C1CCCN21 (stereo unspecified) | -9% | -15%
COC(=O)c1cccc(NC(=O)CCNC(=O)c2ccco2)c1 | 3% | -16%
Cc1ccc(SCc2nnc(N)s2)cc1 | x | -8%
COc1ccc(NS(=O)(=O)c2cc3c4c(c2)CCN4C(=O)CC3)c(OC)c1 | -1% | -23%
CS(=O)(=O)Nc1ccc(-c2cc(/C=C3\SC(N)=NC3=O)c[nH]c2=O)cc1 | i | 6%
CC(NC(=O)COc1cccnc1[N+](=O)[O-])c1ccc(F)cc1 (stereo unspecified) | -14% | 5%
Cc1cccc(C)c1Cn1c(C)c(C(=O)NCCC#N)sc1=O | i | 0%
C[C@@H]1CN([C@@H](C)CO)C(=O)CCCn2nncc2CO[C@@H]1CN(C)C(=O)Nc1ccc(-c2cccs2)cc1 | 1% | -9%
COc1ccc(CCNC(=O)C(=O)NCC2OCCN2S(=O)(=O)c2ccc(OC)cc2)cc1 (stereo unspecified) | -17% | -21%
CC(=O)c1ccccc1NC(=O)COC(=O)c1ccccc1NC(=O)c1ccccc1 | -16% | -8%
CCC(Cc1ccccc1)NC(=O)CCS(=O)(=O)c1cc2c(cc1Cl)NC(=O)CO2 (stereo unspecified) | 4% | 5%
COC(=O)c1ccccc1NC(=O)c1cc(CN2CCCC2)on1 | -3% | -6%
CCN1CCN(C(c2ccc(OC)c(OC)c2)c2nnnn2C(C)(C)C)CC1 (stereo unspecified) | -15% | -12%
CCCCSc1nc(N)c(NC(=O)c2ccco2)c(=O)[nH]1 | i | -2%
CC(=O)c1ccc(S(=O)(=O)Nc2ccc(N3CCOCC3)cc2)cc1 | -23% | -3%
CCc1cccc(CC)c1NC(=O)c1ccccc1 | i | -16%
O=C(NCC1CCCO1)c1ccc(CS(=O)(=O)Cc2ccc(F)cc2)o1 (stereo unspecified) | x | -4%
Cc1ccc2c(c1)-c1c(cnn1CC(=O)N1CCN(c3cccc(C(F)(F)F)c3)CC1)CO2 | -16% | -9%
COc1ccc(OCC(=O)Nc2ccc(-c3nc4cc(Cl)ccc4o3)cc2)cc1 | -24% | -20%
N#CCCN(C(=O)CSc1nc(-c2ccccc2)cn1N)c1ccc(F)cc1 | i | -7%
Cc1[nH]n(-c2ccccc2)c(=O)c1/C=N\NC(=O)C1COc2ccccc2O1 (stereo unspecified) | -19% | -24%
COc1ccccc1CNC(=O)CCc1c(C)c2cc3c(C)coc3cc2oc1=O | -7% | 5%
Cc1ccc2c(c1)c1c(c(=O)n(-c3cccc(Cl)c3)c(=O)n1CC(=O)NCC1CCCO1)n2C (stereo unspecified) | -3% | -2%
CCNc1ccc(C(=O)NN=C2CCCC2)cc1[N+](=O)[O-] | u | -19%
COc1ccc(CN2CCC[C@]3(N[C@H](c4ccccc4)[C@@H]4C(=O)N(Cc5ccccc5)C(=O)[C@@H]43)C2=O)cc1 | i | -13%
CCC(C(=O)OC)(C(=O)OC)c1ccc([N+](=O)[O-])cc1 | i | -3%
COCCn1nnnc1C(C(C)C)N(Cc1ccccc1)Cc1cc2cc(OC)ccc2[nH]c1=O (stereo unspecified) | x | -23%
NCCc1nc2cccnc2n1-c1ccccc1 | -8% | -3%
S=c1[nH]nc(-c2ccc3ccccc3n2)n1-c1ccc2c(c1)OCCO2 | -10% | -15%
CCOC(=O)C1CCN(C(=O)c2ccc3c(SCC(=O)O)c4c(nc3c2)CCCC4)CC1 | i | -3%
CCOC(=O)N1CCN(S(=O)(=O)c2ccc(C)cc2)CC1 | i | -9%
COc1ccc2c(C)cc(SCC(=O)Nc3ccc(Cl)cn3)nc2c1 | i | 13%
Cc1ccc(-c2n[nH]c(=S)n2-c2ccccc2)cc1 | -14%&11% | -7%&-10%
O=C(NC1CCCc2c1cnn2-c1cc(F)cc(F)c1)c1ccccn1 (stereo unspecified) | -13% | -19%
COc1ccc(OC)c(NC(=O)CSc2nc3c(c(=O)n(C)c(=O)n3C)n2C)c1 | -9% | -6%
CC(=O)c1ccc(NC(=O)Cn2nc(C(F)(F)F)c3c2CCC3)cc1 | -7% | 2%
CCc1nnc(NC(=O)c2sc3nc4c(cc3c2N)CCCCC4)s1 | -9% | -28%
Cc1nn(-c2ccccc2)c2sc(C(=O)N3CCOCC3)cc12 | -21% | -16%
O=C(NCCO)/C(=C\c1ccco1)NC(=O)c1ccco1 | -7% | -5%
COc1ccc(C(=O)NCc2cn3ccc(C)cc3n2)cc1 | -11% | -6%
CC[C@@H](C)[C@@H](C(=O)N1CCN(C(=O)OC(C)(C)C)CC1)n1cc(CCC(=O)O)nn1 | -13% | 0%
Cc1cc(NC(=O)c2ccc(-c3ccccc3F)o2)no1 | -13% | -12%
COC(=O)c1ccc(CNC(=O)c2cc(S(=O)(=O)NCc3ccccc3)ccc2C)cc1 | u | -19%
O=S1(=O)N(Cc2ccccc2Cl)CCCN1Cc1ccccc1Cl | -4% | 4%
COc1cccc(NC(=O)C2CCC(CNS(=O)(=O)c3cccc4cccnc34)CC2)c1 (stereo unspecified) | -6% | -18%
Cn1c(-c2ccc(F)cc2)cnc1SCC(=O)Nc1ccccc1N1CCOCC1 | -29% | -17%
Cc1ccc(C)c(OCC(=O)Nc2ccc3c(c2)OCO3)c1C | -16% | u
Cc1ccc(CNC(=O)c2ccc(CS(=O)(=O)Cc3ccc(F)cc3)o2)cc1 | -18% | 0%

# The results go on.
canonical_smiles | Vaccinia mCherry | VACV Venus inh
Nc1ncnc2c1ncn2[C@@H]1O[C@H](C(=O)NCCc2ccc(F)cc2)[C@@H](O)[C@H]1O | 26% | 1%
O=C(NC(=S)NCc1ccc(Cl)cc1)c1ccco1 | -23% | -13%
Cc1cc(N2CCNCC2)nc2ccccc12 | -7% | -6%
O=C(c1ccc2c3n(nc2c1)-c1ccccc1CO3)N1CCOCC1 | -14% | -15%
CC(=O)Nc1ccc(Nc2c(CCC(C)C)c(C)c(C#N)c3nc4ccccc4n23)cc1 | u | u
COc1ccc(-n2nc(C)c3sc(C)nc3c2=O)cc1 | i | -1%
O=C(NCc1ccccc1)C(c1ccco1)N(C(=O)c1ccccn1)c1ccc(F)cc1 (stereo unspecified) | -9% | -10%
COc1ccc(C(C(=O)NC2CCCC2)N(C(=O)c2ccoc2C)c2ccc(C)c(C)c2)cc1 (stereo unspecified) | i | -14%
OC(CN1CCOCC1)C12CC3CC(CC(C3)C1)C2 (stereo unspecified) | i | -7%
Cc1ccc(C(=O)N/C(=C\c2ccco2)C(=O)NCCCN2CCOCC2)cc1C | -8% | -4%

# Quoted from the listing.
# Under Vaccinia mCherry, Cc1cc(NC(=O)c2ccc(-c3ccccc3F)o2)no1 has -13%
# Under VACV Venus inh, CCN1CCN(C(c2ccc(OC)c(OC)c2)c2nnnn2C(C)(C)C)CC1 (stereo unspecified) has -12%

# Following part
canonical_smiles | Vaccinia mCherry | VACV Venus inh
O=C(CSc1nnc(Cc2ccccc2)o1)Nc1ccc2c(c1)OCO2 | x | -4%
CCOc1ccc(OCCCC(=O)N2CCN(S(=O)(=O)c3ccccc3C#N)CC2)cc1 | -11% | -17%
O=C(NCc1ccc(F)cc1)C(c1ccco1)N(C(=O)c1csnn1)c1ccccc1 (stereo unspecified) | -12% | -2%
CCOC(=O)c1sc(NC(=O)CCN2CCCCCC2)c(C(=O)OCC)c1C | -11% | -19%
COc1ccc(S(=O)(=O)NCCc2sc(-c3cccnc3)nc2C)cc1OC | 13% | 11%
c1ccc2c(c1)cnc1ccccc12 | i | -15%
CCOC(=O)C1CCCN(C(=O)c2ccc3c(c2)C(C)(C)CCC3(C)C)CC1 (stereo unspecified) | 38%[activator] | 0%
CCO[C@@H]1OC(C(=O)N2CCN(Cc3ccccc3)CC2)=C[C@H](c2csc3ccccc23)[C@H]1CCCO | i | u
Cc1nc(SCc2ccccc2)c2oc3ccccc3c2n1 | 6% | 8%
Cc1cc(C(=O)N2CCCC(C)(C(=O)NS(=O)(=O)C3CC3)C2)nn1C(C)(C)C (stereo unspecified) | 14% | 1%
COc1cccc(NC(=O)COC(=O)c2nc(Cl)ccc2Cl)c1 | -8% | 3%
COc1cc(/C=C/C(=O)OCC(=O)N2CCc3ccccc32)cc(OC)c1OC | i | -21%
Cc1c(Cl)c([N+](=O)[O-])nn1Cc1ccc(C(=O)Nc2ccc(Cl)cn2)o1 | u | u
CCc1ccc2c(c1)NC(=O)C2(C)Cc1ccc(OC(F)(F)F)cc1 (stereo unspecified) | 9% | -9%
COc1ccc2c(c1)c(CC(=O)Nc1ccc(C)cc1)c(C)n2C(=O)c1ccc(Cl)cc1 | x | -2%
CN(c1ccc(F)cc1)S(=O)(=O)c1ccc(Cl)c(C(=O)Nc2ccncc2)c1 | -16% | -11%
COC(=O)c1c(-c2ccc(N(C)C)cc2)sc2ccc(OC)cc12 | u | u
COc1ccc(-c2noc(CSc3nnc(-c4ccncc4)n3-c3ccccc3)n2)cc1 | -21% | -9%
CCC(COC(=O)Nc1cccc(C)c1C)NC(=O)OCC(C)C (stereo unspecified) | -17% | -8%
Cc1ccc(CNC(=O)Cn2c3ncccc3c(=O)n2-c2ccc(C)cc2)cc1 | -16% | -7%

# Profiles as entered above.
# COC(=O)c1c(-c2ccc(N(C)C)cc2)sc2ccc(OC)cc12 is entered as Vaccinia mCherry = u; VACV Venus inh = u
# CCC(COC(=O)Nc1cccc(C)c1C)NC(=O)OCC(C)C (stereo unspecified) is entered as Vaccinia mCherry = -17%; VACV Venus inh = -8%
# CN(c1ccc(F)cc1)S(=O)(=O)c1ccc(Cl)c(C(=O)Nc2ccncc2)c1 is entered as Vaccinia mCherry = -16%; VACV Venus inh = -11%

# Later entries
canonical_smiles | Vaccinia mCherry | VACV Venus inh
Cc1c(NC(=O)c2ccco2)cccc1-c1nc2cccnc2s1 | -14% | -8%
CC(Cl)C(=O)c1ccc2c(c1)CCN2C(=O)C1CC1 (stereo unspecified) | i | 0%
COc1ccc(C=CC(=O)c2ccc([N+](=O)[O-])cc2)cc1 | -30% | 2%
Cc1ccccc1C(=O)Nc1c2c(nn1C(C)(C)C)CS(=O)(=O)C2 | i | -8%
CC1(N=Cc2cc(Cl)ccc2O)COP(=O)(Nc2ccccc2)OC1 (stereo unspecified) | i | -13%
Clc1ccc(OCc2nc(-c3ccccn3)no2)c(Br)c1 | -7% | -11%
O=C(CN1C(=O)NC2(CCCCC2)C1=O)N1CCN(S(=O)(=O)c2cccc(F)c2)CC1 | i | -22%
CC(C)(C)C1CCc2oc3ccc(NS(=O)(=O)c4cc(Cl)ccc4Cl)cc3c2C1 (stereo unspecified) | -12% | -6%
Cc1nc(C)c(C(=O)Nc2cccc(C)c2C)o1 | u | -20%
Cc1noc(C)c1S(=O)(=O)NC(=O)C1(C)CCN1C(=O)C1(c2ccc(Cl)cc2)CC1 (stereo unspecified) | -15% | -7%

# Overlap with the part before: three entries, followed by the next part.
canonical_smiles | Vaccinia mCherry | VACV Venus inh
CC(C)(C)C1CCc2oc3ccc(NS(=O)(=O)c4cc(Cl)ccc4Cl)cc3c2C1 (stereo unspecified) | -12% | -6%
Cc1nc(C)c(C(=O)Nc2cccc(C)c2C)o1 | u | -20%
Cc1noc(C)c1S(=O)(=O)NC(=O)C1(C)CCN1C(=O)C1(c2ccc(Cl)cc2)CC1 (stereo unspecified) | -15% | -7%
COC(=O)[C@]1(Cc2ccccc2)N[C@H](CN(C)S(=O)(=O)c2ccc(-c3ccccc3)cc2)[C@@H]2C(=O)N(Cc3ccccc3)C(=O)[C@@H]21 | i | 1%
CN1C(=O)c2ccccc2Sc2ccc(NC(=O)N3CCN(c4ccccc4)CC3)cc21 | u | u
Cc1ccc(C(=O)NNC(=O)CCOc2cccc(C)c2)cc1 | -14% | -9%
C[C@@H](Oc1ccccc1)c1nnn(Cc2ccccc2)c1-c1c([C@@H](C)Oc2ccccc2)nnn1Cc1ccccc1 | -8% | -21%
CCN1CCN(C(=O)/C=C/c2c(F)cccc2Cl)CC1 | -16% | -8%
CCc1ccc(-c2nn(-c3ccccc3)cc2C2SCC(=O)N2Cc2ccco2)cc1 (stereo unspecified) | i | -16%
C/C(=N/NS(=O)(=O)c1ccc(C)cc1)c1ccc(NC(=O)C(F)(F)F)cc1 | 8% | 8%
O=C(O)Cn1c(C(F)(F)F)nc2ccccc21 | i | -10%
CN(C)S(=O)(=O)c1cccc(NC(=O)COC(=O)c2cn(-c3ccccc3)nc2-c2ccccc2)c1 | i | -20%
COC(=O)C1=C(c2ccccc2)C[C@@H]2CC[C@H]1N2C(=O)NCCS(C)=O (stereo partly specified) | i | -8%
CC1CCN(c2nc3ccc(C(=O)NCCCN4CCCCC4)cc3s2)CC1 | i | -23%
Nc1nonc1C(=O)NCCNCc1cccc(Cl)c1Cl | -1% | -4%

# No new results follow: an excerpt of the list.
canonical_smiles | Vaccinia mCherry | VACV Venus inh
CC1CCN(c2nc3ccc(C(=O)NCCCN4CCCCC4)cc3s2)CC1 | i | -23%
Nc1nonc1C(=O)NCCNCc1cccc(Cl)c1Cl | -1% | -4%
